High-throughput results: PubChem BioAssay, ICCB-Longwood Screening Facility, Harvard Medical School
Choline anaer gr: growth inhibitors of anaerobic choline-fed gram-negatives, minimal medium, absorbance; Gram-negative bacterium anaerobic choline minimal medium; stronger effect = lower value; many inactives read as strong as hits in the columns shown; calls only; 55,000 compounds, 0.2% hits; AID 1963822, 2024;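 active = growth z-score on choline under -2 at 7 or 20 h with little or no fall on glycerol, limits in tiers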;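 note: stock transfer was 300 nL into about 50 µL; the organism is E. coli; final concentration not given here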
Choline anaer gr early: also measured in Choline anaer gr; calls as there; z-score; measured here: choline growth z-score, timepoint 1;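 score of optical density at 7 h as mean of two plates; lower means less growth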
An asterisk follows results filed as active; i = inactive; & = joins results of further samples. A portion of the library; rates above refer to the full screens.

The line under a structure holds: Choline anaer gr	Choline anaer gr early
CCOc1ccc(NC(=O)Cn2c(=O)n(-c3cccc(C)c3)c(=O)c3c2c2cc(C)ccc2n3C)cc1
  i	0.63
CCOCCCNC(=O)c1ccc(CN2C(=O)C(C)=C(c3ccc(C)c(C)c3)S2(=O)=O)cc1
  i	0.83
O=C(COc1cccc(-c2nc(-c3ccccc3)no2)c1)Nc1ccccc1
  i	0.04
COc1ccc(C2CC(=O)N(c3ccc(C)c(Cl)c3)C(=O)C2)cc1OC
  i	0.48
CCOc1ccccc1-c1noc(-c2cnn3c(C)c(Cc4ccccc4C)c(C)nc23)n1
  i	-1.08
COc1ccccc1-c1noc(-c2cn(C)c3cc(N4CCCCC4)c(F)cc3c2=O)n1
  i	-0.44
Cn1nnc2cc(C(=O)Nc3ccccc3)ccc21
  i	1.51
CCCc1cc(=O)[nH]c(SCc2nc(-c3ccccc3)oc2C)n1
  i	1
CCN(CC)CCn1c(NCc2ccc(C)cc2)nc2ccccc21
  i	-1.28
COc1cccc(C(=O)Nc2ccccc2-c2ccc3ccccc3n2)c1
  i	1.67
O=S(=O)(c1ccccc1)c1nnn2c1nc(NCc1ccccc1)c1ccccc12
  i	-1.6
O=C(Nc1cccc(Cl)c1)c1nnc(C2CCCN(C(=O)NCC3CCCO3)C2)s1 (stereo unspecified)
  i	-0.07
Cc1noc(/C=C/c2ccc(S(=O)(=O)N3CCC(C)CC3)s2)c1NC(=O)C1CC1
  i	-0.77
CCN1CCN(c2oc(-c3ccc(S(=O)(=O)N4CCCC(C)C4)cc3)nc2C#N)CC1 (stereo unspecified)
  i	0.76
O=C(Nc1ccc(Cl)cc1)N1CCN(Cc2nc3cccnc3n2-c2ccccc2)CC1
  i	-0.04
COc1ccc(S(=O)(=O)N2CC(=O)N(c3ccc(C)c(F)c3)C(C)(C(=O)NC3CCCCC3)C2)cc1 (stereo unspecified)
  i	0.39
CCC(C(=O)N1CCN(Cc2ccc3c(c2)OCO3)CC1)N1C(=O)CCn2nc(C)cc21 (stereo unspecified)
  i	0.19
COc1ccc2cc3c(nc2c1)N(S(=O)(=O)c1ccc(F)cc1C)CC3
  i	-1.23
COCCn1ccc2nc(C)c(C(=O)NC3CCCCC3)cc2c1=O
  i	0.51
O=C(Nc1nc2ccc(NC(=O)C3CCC3)cc2s1)c1ccccc1
  i	1.49
CCC(C)C1N=C2c3ccccc3N=C(SCC(=O)NCCc3ccc(S(N)(=O)=O)cc3)N2C1=O (stereo unspecified)
  i	-0.84
CCCCC(=O)Nc1ccc(N(C)CC2COCCO2)c(C(=O)O)c1 (stereo unspecified)
  i	1.01
FC(F)(F)c1cccc(-c2noc(-c3cc(-c4ccccc4)c(C(F)(F)F)s3)n2)c1
  i	0.43
CN(C(=O)c1ccc(-c2cc(NC3CCCCC3)ncn2)cc1)C1CCCCC1
  i	-0.29
COCCN(C(=O)c1noc2c1COc1ccccc1-2)C1CCN(C(C)=O)CC1
  i	-2.56
CS(=O)(=O)N1CCC(c2cc(-c3ccc(F)cc3)n[nH]2)CC1
  i	-0.56
O=S(=O)(c1cccn2c(SCc3ccc(Cl)cc3)nnc12)N1CCCC1
  i	-0.02
CC1(C)CC(=O)C(C2C3=C(CC(C)(C)CC3=O)Oc3ccccc32)C(=O)C1 (stereo unspecified)
  i	0.43
Cc1cc2n(n1)CCCN2Cc1ccc(C(=O)Nc2ccc(F)cc2)cc1
  i	0.82
N#CC1=CN(c2cccc(Br)c2)c2ccccc2S1(=O)=O
  i	0.23

Complete entries, quoted from the list. Order of screens: Choline anaer gr	Choline anaer gr early
CCOc1ccc(NC(=O)Cn2c(=O)n(-c3cccc(C)c3)c(=O)c3c2c2cc(C)ccc2n3C)cc1 is listed with i	0.63
CCN1CCN(c2oc(-c3ccc(S(=O)(=O)N4CCCC(C)C4)cc3)nc2C#N)CC1 (stereo unspecified) is listed with i	0.76

Continuation.
The line under a structure holds: Choline anaer gr	Choline anaer gr early
CC1CSc2ccc(S(=O)(=O)N3CCCC3)cc2N(CC(=O)N2CCc3ccccc32)C1=O (stereo unspecified)
  i	-1.19
O=C(NCCn1c(CCc2ccccc2)nc2cccnc21)c1ccc(Br)cc1
  i	0.05
COc1c(C)cnc2c1c(=O)n(CC(=O)NCc1ccc3c(c1)OCO3)c(=O)n2C
  i	0.06
Cc1ccccc1NC(=O)Nc1cccc(CCc2nc3ccccc3n2C)c1
  i	-0.92
Cc1c(Cl)cccc1NS(=O)(=O)c1cn(C)cn1
  i	-0.63
CN(C1CCCCC1)S(=O)(=O)c1cc(C(=O)N2CCCC2)cs1
  i	-0.97
Cn1c(=O)c2nc(SCc3ccccc3)n(C)c2n(C)c1=O
  i	-0.25
COc1cccc(CC(=O)n2nc(N)c3cc4ccc(OC)cc4nc32)c1
  i	-0.13
COc1ccc(Cn2cnc3c4ccccc4n(CC(=O)Nc4ccc(C)c(Cl)c4)c3c2=O)cc1
  i	0.4
CC1CCCN(S(=O)(=O)c2ccc(S(=O)(=O)N(Cc3ccc4c(c3)OCO4)Cc3ccccc3F)cc2)C1 (stereo unspecified)
  i	-0.38
CCCC(=O)Nc1ccc(OC)c(CN2CCn3c(nc4ccccc43)C2)c1
  i	0.19
O=C(CSc1nc2ccccc2c(=O)[nH]1)NCc1nc2ccccc2[nH]1
  i	-0.55
CC(C)(C)NC(=O)N1CCC(OC2CCCC2)CC1
  i	0.45
CN(C)c1ccc(C(=O)NCCn2c(-c3ccccc3)nc3cccnc32)cc1
  i	0.3
O=C1CC(c2ccc(F)cc2F)c2c(nc(SCc3ccc(F)cc3)[nH]c2=O)N1 (stereo unspecified)
  i	-1.29
O=c1ccc(N2CCN(S(=O)(=O)c3cccc4nsnc34)CC2)nn1-c1ccc(F)cc1
  i	0.64
CC(C(=O)Nc1cccc(N=Cc2c(O)ccc3ccccc23)c1)c1ccccc1 (stereo unspecified)
  i	0.51
Cc1cc(Nc2ccccc2F)n2ncnc2n1
  i	-0.24
CC(C)c1nnc(-c2ccc(S(=O)(=O)NC3CCCCCC3)o2)o1
  i	0.41
Cc1ccc(S(=O)(=O)N(Cc2cccc(F)c2)c2nc3nc(C)c(Cl)c(C)n3n2)cc1
  i	0.66
Cc1cc(C2CCCN2S(=O)(=O)c2c(C)noc2C)no1 (stereo unspecified)
  i	-0.41
Cc1ccc(C2CCCCCN2C(=O)Nc2ccccc2Br)s1 (stereo unspecified)
  i	2.19
CCCc1ccc(S(=O)(=O)Nc2ccc3nc(S(=O)(=O)CC)sc3c2)cc1
  i	-0.5
CCn1cnc(S(=O)(=O)N2CCC(C(=O)Nc3ccc4c(c3)OCO4)CC2)c1
  i	-0.14
O=C(NCc1ccc2c(c1)OCO2)c1ccc(Nc2ccc(-c3ccc(F)cc3)nn2)cc1
  i	0.04
CC1CCCN(C(=O)CCCn2c(=O)c3cccn3c3ccc(Br)cc32)C1 (stereo unspecified)
  i	1.15
CC(C)(C)CC(=O)N1CCN(Cc2noc(-c3ccccc3)n2)CC1
  i	1.16
CC(=O)N1c2ccc(S(=O)(=O)N3CCCCC3)cc2CC1C(=O)N1CCc2ccccc2C1 (stereo unspecified)
  i	0.31
O=C1N(Cc2cc(F)cc(F)c2)c2ccccc2S(=O)(=O)N1Cc1ccc(F)cc1
  i	-0.73
CCC(C)NC(=O)C1CCN(S(=O)(=O)c2cc(-c3noc(C(C)C)n3)sc2C)CC1 (stereo unspecified)
  i	0.56

Given with each value named: 4 of the compounds above.
CC1CCCN(C(=O)CCCn2c(=O)c3cccn3c3ccc(Br)cc32)C1 (stereo unspecified)
  Choline anaer gr: i	Choline anaer gr early: 1.15
CC(C)(C)CC(=O)N1CCN(Cc2noc(-c3ccccc3)n2)CC1
  Choline anaer gr: i	Choline anaer gr early: 1.16
CC(=O)N1c2ccc(S(=O)(=O)N3CCCCC3)cc2CC1C(=O)N1CCc2ccccc2C1 (stereo unspecified)
  Choline anaer gr: i	Choline anaer gr early: 0.31
O=C1N(Cc2cc(F)cc(F)c2)c2ccccc2S(=O)(=O)N1Cc1ccc(F)cc1
  Choline anaer gr: i	Choline anaer gr early: -0.73

More compounds
The line under a structure holds: Choline anaer gr	Choline anaer gr early
Cc1ccccc1S(=O)(=O)Nc1ccccc1-c1ccc2ccccc2n1
  i	0.31
COc1ccc(CC(=O)Nc2cc3c(cc2SC(C)C)n(C)c(=O)n3C)cc1OC
  i	0.83
O=C(Nc1ccc(C2(C(=O)NCC3CCCO3)CC2)cc1)c1ccc(Cl)cc1 (stereo unspecified)
  i	0.67
CC(C)CC(=O)Nc1ccc(SCc2nnc(-c3ccccc3)o2)cc1
  i	-0.94
Cc1cccc(-c2nccc(N3CCC(C(=O)NCc4ccc5c(c4)OCO5)CC3)n2)c1
  i	1.24
c1cncc(-c2nnc(C3CCC3)o2)c1
  i	-0.7
O=C(CCCc1nnc(C(=O)Nc2ccccc2)s1)NCCCN1CCC(N2CCCCC2)CC1
  i	-0.62
Cc1nn(-c2ccc3nnc(C)n3n2)c2c1C(c1cccc(F)c1)CC(=O)N2 (stereo unspecified)
  i	0.52
C[C@@]12C(=O)N(c3ccc(C(=O)Nc4cccc5cccnc45)cc3)C(=O)[C@@H]1C1C=CC2C1 (stereo partly specified)
  i	0.49
CC(C)(C)C(=O)Nc1ccc2nc(SCC(=O)N3CCCC3)sc2c1
  i	-0.85
COc1ccc(-c2nonc2NC(=O)COc2ccc(C(C)C)cc2)cc1C
  i	0.62
O=C(O)c1cc(N2CCN(c3ccccn3)CC2)nc2ccc(NS(=O)(=O)c3ccc(F)cc3)cc12
  i	-0.76
COc1cn(CC(=O)NC2CCCC2)c(CN2CCCCC2)cc1=O
  i	0.27
Cc1nccc2[nH]c(=O)c(C(=O)NCCc3ccccc3)cc12
  i	0.02
O=C(CC(c1ccc(F)cc1)N1Cc2ccccc2C1=O)NCc1ccccn1 (stereo unspecified)
  i	-0.16
O=C(NC1CC1)C1CCN(c2cnc(N3CCCCCC3)nc2)CC1
  i	0.43
CC(C)(C)NC(=O)c1cnc2sccn2c1=O
  i	-0.28
CCN(CC)c1ccc2cc(-c3nc(-c4ccccc4)cs3)c(=O)oc2c1
  i	0.42
Cc1cccc(C(=O)N2CCC(N3CCN(Cc4ccc(F)cc4)C3=O)CC2)c1
  i	1.1
CC1CCN(CCCNC(=O)c2cc3c(s2)-c2ccc(Cl)cc2SC3)CC1
  i	-5.57
Cc1cc(C(=O)N2CCCCC2)c2c(=O)n(CC(=O)NCCC(C)C)c(=O)n(C)c2n1
  i	0.35
O=C(c1ccc(Cn2c(=O)c(=O)n(Cc3ccc(F)cc3)c3cccnc32)cc1)N1CCOCC1
  i	-0.09
COc1ccc(C(=O)Nc2cc(C)nn2-c2ncnc3c2cnn3-c2ccccc2)c(OC)c1
  i	-1.28
C#CCOc1ccc(C2Nc3c(C)cc(C)cc3[C@H]3OCC[C@@H]23)cc1 (stereo partly specified)
  i	-0.78
OC(CN1CCC(Cc2ccc(F)cc2)CC1)c1ccc(Cl)cc1 (stereo unspecified)
  i	-0.01&-0.19
COc1ccc(NC(=O)CCCC(=O)c2ccccc2)cc1
  i	-1.27
Cc1cc(C)cc(NC(=O)c2cc(-c3ccncc3)n[nH]2)c1
  i	-1.38
O=C(Cc1cn(Cc2cccc(Cl)c2)c2ccccc12)Nc1nc2ccccc2s1
  i	-0.01
Cc1c(CNC(=O)c2cnn3c(C(F)(F)F)cc(-c4ccc(Br)cc4)nc23)cnn1C
  i	-1.58
CC(C)CC(=O)N1CCC(N(Cc2csc(-c3cccs3)n2)S(C)(=O)=O)CC1
  i	-0.11
O=S(=O)(NCCc1nc(-c2ccc(Cl)cc2)n[nH]1)c1ccc(F)cc1
  i	-0.4
S=C(Nc1ccccc1)Nc1nccs1
  i	-1.24
CC1=C(C(=O)Nc2ccccc2)C(c2ccc(Br)cc2)n2nc(SCc3ccccc3)nc2N1 (stereo unspecified)
  i	0.06
CCc1ccc(NC(=O)Nc2ccc(CCc3nc4ccccc4[nH]3)cc2)cc1
  i	0.43
CCN1C(=O)COc2ccccc2C1=O
  i	-1.43
COc1ccc2c(c1)CCc1c-2n[nH]c1C(=O)N1CCN(c2c(C)n(C)c(=O)n(C)c2=O)CC1
  i	-0.58
CCCCNC(=O)c1ccc(Nc2ccc(-c3cccc(C)c3)nn2)cc1
  i	-0.22
CCOC(=O)c1cc2n(n1)CC(C)(C(=O)NC1CCCC1)N(c1ccc(OCC)cc1)C2=O (stereo unspecified)
  i	-0.61
CN(C)c1nc2ncn3c(=O)n(CC(=O)Nc4ccc(F)c(F)c4)nc3c2s1
  i	0.32
CC(=O)n1nc(-c2ccccc2C)nc1N
  i	0.19
O=C(CCN(CCCN1CCOCC1)C(=O)c1cccc(F)c1)N1CCNCC1
  i	-2.08
CCCCCCC(Sc1nc(Cl)cc(NCc2ccc(-c3ccccc3)cc2)n1)C(=O)O (stereo unspecified)
  i	0.74
CCc1onc(C)c1C1CCCN1Cc1ccc(OCC(C)C)c(OC)c1 (stereo unspecified)
  i	-0.19
Clc1ccc(-c2ccc(CNCC3CCCO3)o2)cc1 (stereo unspecified)
  i	-0.67
O=C(NCC1CCCO1)c1ccc(Cn2c(=O)c3cccn3c3cccnc32)cc1 (stereo unspecified)
  i	0.94
Cc1cc(S(=O)(=O)Nc2ccc3c(c2)n(C)c(=O)n3C)ccc1F
  i	-1.05
CCCCNC(=O)CSc1nnc(-c2cc3ccccc3n2C)o1
  i	-0.32
Cc1noc(C)c1C1CCCN1S(=O)(=O)c1ccccc1F (stereo unspecified)
  i	0.03
CC(=O)Nc1c(-c2ccc(F)cc2)c(C)nn1-c1ccc(C(=O)N2CCN(c3ccccn3)CC2)cc1
  i	-1.52
Cc1ccc2c(c1)N(C(=O)CSc1nc3ccccc3c(=O)[nH]1)CCO2
  i	-0.36
